Screens deposited in PubChem by Broad Institute.
rRNA inh HTS: selective bacterial rRNA inhibition in E. coli. E. coli WT GFP vs humanized-ribosome RFP mutants, fluorescence, 24 h; stronger effect = lower value; DMSO median 0, no signal -100. GFP signal change (wild-type ribosome), % (no concentration beside the values). 350,000 tested, 1.6% active;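 active = significant combined selectivity score with lowered wild-type GFP, culture density cut under 30%, mutant RFP and density less affected; inactive = any of these conditions unmet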; also: one replicate is shown; some compounds called inactive have numbers as strong as hits
MLL AF4-AF9 inh: inhibitors of human MLL-AF4/AF9 interaction; P42568; AlphaScreen, biotin-AF4 peptide binding to FLAG-AF9; inhibition, % at 10 µM; 350,000 tested, 0.47% active; AID 651704;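 active = every replicate reaching a set inhibition limit, whatever the replicate mean, cut at about 25% in these data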;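 also: 0% = plate neutral control median and 100% = total signal loss; the record names both 10 and 1 µM as test concentration; the first replicate is given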
Target sequence (P42568 whole entry, looked up): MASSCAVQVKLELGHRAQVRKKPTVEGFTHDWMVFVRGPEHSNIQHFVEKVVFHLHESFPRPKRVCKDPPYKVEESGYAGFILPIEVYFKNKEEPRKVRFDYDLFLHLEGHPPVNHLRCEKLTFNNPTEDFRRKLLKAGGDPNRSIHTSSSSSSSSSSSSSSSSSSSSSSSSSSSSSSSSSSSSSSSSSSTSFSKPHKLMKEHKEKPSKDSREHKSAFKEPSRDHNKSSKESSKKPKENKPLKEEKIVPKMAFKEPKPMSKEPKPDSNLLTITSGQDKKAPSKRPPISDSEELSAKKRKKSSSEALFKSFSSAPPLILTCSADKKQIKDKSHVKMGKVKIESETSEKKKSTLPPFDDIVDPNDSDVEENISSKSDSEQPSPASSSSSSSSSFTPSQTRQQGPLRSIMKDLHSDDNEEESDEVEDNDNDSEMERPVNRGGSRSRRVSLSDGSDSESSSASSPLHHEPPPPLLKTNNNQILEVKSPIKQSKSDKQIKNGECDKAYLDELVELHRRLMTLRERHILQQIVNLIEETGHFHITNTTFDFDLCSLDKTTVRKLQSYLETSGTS
rRNA inh HTS OD600: recorded beside rRNA inh HTS, whose call it bears; OD600 change, %; measured here: OD600 growth;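 optical density of the mix in the first replicate; 0 = DMSO median and -100 = no signal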
rRNA inh HTS RFP: recorded beside rRNA inh HTS, whose call it bears; RFP signal change, %; measured here: RFP humanized mutant strains;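 first replicate; 0 = DMSO median and -100 = no signal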
The depositor's hits bear a star; & = joins results of further samples. Only part of the results is shown (hit frequency here may not be typical).

SMILES	rRNA inh HTS	rRNA inh HTS OD600	rRNA inh HTS RFP	MLL AF4-AF9 inh
Cc1noc(C)c1NC(=O)Nc1ccc2c(c1)C(=O)N([C@@H](C)CO)C[C@@H](C)[C@H](CN(C)S(=O)(=O)c1cn(C)cn1)OCCCC[C@@H](C)O2	3	0	-2.5	-1.9
O=C(NCCC(F)(F)F)c1cccc2c(-c3ccc(F)c(F)c3)coc12	-7	-19	-3.8	-3.7
CCC(=O)N(C)C[C@@H]1Oc2cc(C#Cc3ccccc3)ccc2S(=O)(=O)N([C@H](C)CO)C[C@@H]1C	0	-33	10	4.4
C[C@H]1CN([C@@H](C)CO)C(=O)c2cccc(NC(=O)Nc3ccc(F)cc3)c2O[C@H]1CN(C)C(=O)Nc1ccccc1	-5	-4	3.4	2.9
CN1C(=O)c2cc(NC(=O)NCc3ccccc3)ccc2OC[C@H]2O[C@H](CC(=O)O)CC[C@@H]21	1	5	-1.5	-0.6
Cc1ccc(S(=O)(=O)N(C)C[C@H]2Oc3cc(Br)ccc3S(=O)(=O)N([C@@H](C)CO)C[C@@H]2C)cc1	-8	-20	8.4	3.1
O=C(NCc1cc(F)cc(F)c1)[C@@H]1[C@@H](CO)[C@@H]2Cn3c(cccc3=O)[C@H]1N2C(=O)c1ccccn1	1	3	-1.8	-4.7
Cc1noc(C)c1NC(=O)N(C)C[C@@H]1OCCCC[C@@H](C)Oc2ccc(NC(=O)NC3CCCCC3)cc2C(=O)N([C@@H](C)CO)C[C@H]1C	1	-7	-1.3	-14
Cc1ccc(S(=O)(=O)N2CCC(=O)N([C@H](COCc3ccc(C(F)(F)F)cc3)Cc3ccccc3)CC2)cc1	10	-11	-1.9	-4.0
COCC(=O)N1CCCCN2[C@H](CO)[C@@H](c3ccc(-c4ccc(C)cc4)cc3)[C@@H]2C1	2	12	-3.1	-6.1
O=C(Nc1ccccc1F)N[C@@H]1CC[C@H](CCNC(=O)C2CCCCC2)O[C@H]1CO	-4	-7	-1.0	-1.4
CO[C@H]1CN(C)C(=O)c2ccc(NC(=O)Nc3cccc(Cl)c3)cc2OC[C@H](C)N(C(=O)Nc2c(C)noc2C)C[C@@H]1C	0	5	-1.0	-0.9
C[C@@H]1CCCCO[C@H](CN(C)Cc2ccccc2)[C@H](C)CN([C@@H](C)CO)C(=O)c2cc(NC(=O)Nc3cccc4ccccc34)ccc2O1	-17	-24	11	2.5
CCCNC(=O)C1(C)CCCN(C(=O)c2ccc(F)cc2Cl)C1 (configuration not stated)	5	8	0.2	2.1
CC(=O)N[C@@H]1CC[C@H](CCNC(=O)C2CC2)O[C@H]1CO	3	8	0.7	-3.4
C[C@@H]1CCCCO[C@H](CN(C)S(=O)(=O)c2cccs2)[C@H](C)CN([C@@H](C)CO)C(=O)c2cc(N(C)C)ccc2O1	-5	-15	-0.1	16
C[C@H]1CN([C@@H](C)CO)C(=O)c2ccccc2-c2ccccc2CO[C@@H]1CN(C)Cc1ccc(Cl)c(Cl)c1	-5	3	6.8	-1.4
CC(CC(=O)Nc1ccc2c(c1)c(=O)n(C)n2Cc1ccc(Cl)cc1)C(F)(F)F (configuration not stated)	2	-14	8.2	-2.1
C[C@@H]1CN([C@@H](C)CO)C(=O)c2cc(NS(C)(=O)=O)ccc2O[C@@H]1CN(C)Cc1ccc2c(c1)OCO2	1	-6	-0.5	-11
CCSC(=O)N=Nc1ccc(O)cc1	-8	1	0.9	4.6
COc1ccc(Cl)cc1-c1cc(C(=O)Nc2ccc(C(C)(C)C)cc2)[nH]n1	1	4	-2.1	0.6
Cc1ccc(S(=O)(=O)N(C)C[C@@H]2OCCCC[C@@H](C)Oc3ccc(NC(=O)Nc4ccc5c(c4)OCO5)cc3C(=O)N([C@H](C)CO)C[C@@H]2C)cc1	3	6	-1.9	-1.3
C[C@H]1CN([C@@H](C)CO)C(=O)c2cc(-c3cccc(F)c3)cnc2O[C@H]1CN(C)S(C)(=O)=O	5	2	-0.5	-4.0
COC(=O)c1ccc2nc(-c3ccc(Cl)cc3)c(Cc3ccsc3)n2c1	-26	-21	1.0	0.0
CCCN(C)C[C@@H]1OCCCC[C@@H](C)Oc2ccc(NC(=O)Nc3ccc(OC)cc3)cc2C(=O)N([C@H](C)CO)C[C@@H]1C	4	4	1.4	2.1
CCc1cnc(N2[C@@H](C#N)[C@H](c3ccc(C4=CCCCC4)cc3)[C@@H]2CO)s1	4	-15	-5.9	1.7
CN(C)CCCNc1nc2cc(-c3ccc(F)cc3)sc2c(=O)n1C	-4	10	0.9	2.6
CN(C)C(=O)C[C@@H]1CC[C@@H]2[C@@H](COc3ccc(NC(=O)C4CCOCC4)cc3C(=O)N2C)O1	3	6	-1.9	0.1
C=CCN1C(=O)c2n[nH]c(COC)c2C1c1ccc(F)cc1 (configuration not stated)	10	7	-0.5	-1.1
C[C@@H]1CN([C@@H](C)CO)S(=O)(=O)c2ccc(C#CCC3CCCC3)cc2O[C@@H]1CN(C)C(=O)c1ccccn1	4	-31	30	4.6
COc1ccccc1S(=O)(=O)N1C[C@@H]2N[C@H](C1)C2c1ccc(-c2ccccc2)cc1 (some centres not stated)	-27&0	-38&-13	1.4&-1.2	-1.9&1.5
CO[C@H]1CN(C)C(=O)c2ccc(NC(=O)C3CC3)cc2OC[C@H](C)N(Cc2ccncc2)C[C@H]1C	-2	-5	-1.5	-1.8
C[C@H]1CN([C@@H](C)CO)C(=O)Cc2cc(NC(=O)Cn3cnnn3)ccc2O[C@H]1CN(C)C(=O)Nc1ccccc1	3	8	0.5	-2.7
CCc1nc2ccc(C(=O)NCCc3c[nH]c4ccccc34)cn2c1N(C)CCCc1ccccc1	-1	16	14	1.9
C[C@@H]1CN([C@H](C)CO)C(=O)c2cc(NC(=O)Nc3ccccc3)ccc2O[C@H]1CN(C)S(=O)(=O)c1ccc(Cl)cc1	-9	-7	1.6	2.9
O=C(Nc1ccccc1)N1C[C@@H]2N[C@H](C1)C2c1ccc(-c2ccccc2F)cc1 (some centres not stated)	-58&-18	-78&-32	-13&-4.1	-1.0&8.8
C[C@@H]1CN([C@H](C)CO)C(=O)c2c(c3ccccc3n2C)-c2ccccc2CO[C@H]1CN(C)S(=O)(=O)c1ccc([N+](=O)[O-])cc1	-1	1	-0.4	6.9
COc1ccc(NC(=O)Nc2ccc3c(c2)[C@@H]2C[C@@H](CC(=O)N4CCCCC4)O[C@@H](CO)[C@@H]2O3)cc1	-1	-3	2.8	1.4
O=C(Nc1ccc(F)cc1)N[C@@H]1CC[C@H](CCNS(=O)(=O)c2ccccc2F)O[C@H]1CO	0	0	-0.8	-0.6
C[C@@H]1CN([C@H](C)CO)S(=O)(=O)c2ccc(C#C[C@@H](C)O)cc2O[C@H]1CN(C)C(=O)C1CCC1	5	13	-1.8	-2.2
C[C@@H]1CN([C@H](C)CO)C(=O)c2cccc(N(C)C)c2O[C@@H]1CN(C)C	4	19	-1.9	-3.0
COc1ccccc1S(=O)(=O)Nc1ccc2c(c1)C(=O)N(C)C[C@@H](OC)[C@@H](C)CN[C@@H](C)CO2	2	1	-1.8	0.3
O=C(C[C@H]1C=C[C@@H](NC(=O)C2CCC2)[C@H](CO)O1)NCCCN1CCOCC1	-2	-1	0.8	-1.9
CC1(C(=O)NS(=O)(=O)C2CC2)CCCN(C(=O)c2ccc3ccccc3c2)C1 (configuration not stated)	3	-3	-1.3	1.8
CC(C)C1C(=O)N(Cc2cn(CC3CCCCC3)nn2)CCS(=O)(=O)N1Cc1ccc(-c2ccncc2)cc1 (configuration not stated)	3	-13	3.7	-1.7
Cc1cccc(CN2CCN(C3CN(Cc4ccccc4)S(=O)(=O)C3)CC2)c1 (configuration not stated)	15	7	5.0	0.2
O=C(C1CC1)N1[C@@H]2CN(S(=O)(=O)c3ccccc3)c3ccccc3[C@@H]2[C@@H]1CO	1	-1	-0.7	-0.1
CN(C[C@@H]1[C@H](c2ccccc2)[C@@H](CO)N1C(=O)C1CCC1)C(=O)c1ccccn1	-1	-6	-0.5	-3.9
CN(C)C(=O)c1cccc(-c2ccc([C@@H]3[C@@H](CO)N4C(=O)CN(C(=O)CC5CC5)C[C@@H]34)cc2)c1	3	10	-0.3	-0.1
COc1ccc(S(=O)(=O)N(C)C[C@H]2Oc3ccc(NC(=O)C4CCCCC4)cc3C(=O)N([C@H](C)CO)C[C@H]2C)cc1	-4	-12	3.1	-2.4

The last 2 records of the section before lead into the next.
SMILES	rRNA inh HTS	rRNA inh HTS OD600	rRNA inh HTS RFP	MLL AF4-AF9 inh
CN(C)C(=O)c1cccc(-c2ccc([C@@H]3[C@@H](CO)N4C(=O)CN(C(=O)CC5CC5)C[C@@H]34)cc2)c1	3	10	-0.3	-0.1
COc1ccc(S(=O)(=O)N(C)C[C@H]2Oc3ccc(NC(=O)C4CCCCC4)cc3C(=O)N([C@H](C)CO)C[C@H]2C)cc1	-4	-12	3.1	-2.4
CCC(C)C(CO)NCCCn1cnc(C(=O)Nc2ccc(C)c(C)c2)n1 (configuration not stated)	4	3	1.1	1.5
O=C(C[C@H]1CC[C@H]2[C@@H](COC[C@@H](O)CN2Cc2nccs2)O1)NCc1ccc(F)cc1	1	8	-2.7	-4.3
CO[C@@H]1CN(C)C(=O)c2cc(NC(=O)C3CCC3)ccc2OC[C@H](C)N(C)C[C@@H]1C	2	4	-1.5	-2.3
CN(C)C(=O)c1ccc(-c2ccc([C@@H]3[C@H]4CN(C(=O)CC5CC5)CC(=O)N4[C@H]3CO)cc2)cc1	-6	1	-0.9	-2.5
C[C@@H]1CN([C@H](C)CO)C(=O)c2cc(NS(C)(=O)=O)ccc2O[C@@H](C)CCCCO[C@H]1CN(C)CC1CC1	3	4	-0.4	-3.0
COc1ccc(NC(=O)Nc2ccc3c(c2)C(=O)N([C@H](C)CO)C[C@@H](C)[C@@H](CN(C)Cc2ccc(Oc4ccccc4)cc2)O3)cc1	4	-8	5.5	-3.7
CC(C)NC(=O)N(C)C[C@@H]1Oc2ccc(N(C)C)cc2CC(=O)N([C@@H](C)CO)C[C@H]1C	4	0	-1.0	-1.9

Molecules from the list above containing fluorine, in the order listed:
SMILES	rRNA inh HTS	rRNA inh HTS OD600	rRNA inh HTS RFP	MLL AF4-AF9 inh
O=C(NCCC(F)(F)F)c1cccc2c(-c3ccc(F)c(F)c3)coc12	-7	-19	-3.8	-3.7
C[C@H]1CN([C@@H](C)CO)C(=O)c2cccc(NC(=O)Nc3ccc(F)cc3)c2O[C@H]1CN(C)C(=O)Nc1ccccc1	-5	-4	3.4	2.9
O=C(NCc1cc(F)cc(F)c1)[C@@H]1[C@@H](CO)[C@@H]2Cn3c(cccc3=O)[C@H]1N2C(=O)c1ccccn1	1	3	-1.8	-4.7
Cc1ccc(S(=O)(=O)N2CCC(=O)N([C@H](COCc3ccc(C(F)(F)F)cc3)Cc3ccccc3)CC2)cc1	10	-11	-1.9	-4.0
O=C(Nc1ccccc1F)N[C@@H]1CC[C@H](CCNC(=O)C2CCCCC2)O[C@H]1CO	-4	-7	-1.0	-1.4
CCCNC(=O)C1(C)CCCN(C(=O)c2ccc(F)cc2Cl)C1 (configuration not stated)	5	8	0.2	2.1
CC(CC(=O)Nc1ccc2c(c1)c(=O)n(C)n2Cc1ccc(Cl)cc1)C(F)(F)F (configuration not stated)	2	-14	8.2	-2.1
C[C@H]1CN([C@@H](C)CO)C(=O)c2cc(-c3cccc(F)c3)cnc2O[C@H]1CN(C)S(C)(=O)=O	5	2	-0.5	-4.0
CN(C)CCCNc1nc2cc(-c3ccc(F)cc3)sc2c(=O)n1C	-4	10	0.9	2.6
C=CCN1C(=O)c2n[nH]c(COC)c2C1c1ccc(F)cc1 (configuration not stated)	10	7	-0.5	-1.1
O=C(Nc1ccccc1)N1C[C@@H]2N[C@H](C1)C2c1ccc(-c2ccccc2F)cc1 (some centres not stated)	-58&-18	-78&-32	-13&-4.1	-1.0&8.8
O=C(Nc1ccc(F)cc1)N[C@@H]1CC[C@H](CCNS(=O)(=O)c2ccccc2F)O[C@H]1CO	0	0	-0.8	-0.6
O=C(C[C@H]1CC[C@H]2[C@@H](COC[C@@H](O)CN2Cc2nccs2)O1)NCc1ccc(F)cc1	1	8	-2.7	-4.3
